Assay outcomes: PubChem BioAssay, ICCB-Longwood Screening Facility, Harvard Medical School
HCMV NEC inh: disrupts HCMV UL50-UL53 complex binding | HTRF UL50-UL53 interaction, normalized percent inhibition | inhibition, % (no concentration beside the values) | 0.15% of 190,000 active;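 active means both replicates at 50% or more, plus weaker picks with an unusually low signal ratio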;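 further: stock transfer was 100 nL into about 20 µL; 0% = negative control wells and 100% = wells with untagged competitor protein; inactives centre near -12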
GIV Gai3 FP: inhibitors of GIV GBA-motif binding to rat Galpha-i3; Galpha-i3/FITC-GIV peptide fluorescence polarization, 90 min; stronger effect = lower value; scaled: aluminum fluoride 0%, vehicle 100%; percent of control (FP), % (test concentration not listed); 0.42% of 210,000 active;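 active means replicate mean at 85% of control or lower, very high polarization wells dropped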;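 further: wells of about 15 µL received 100 nL stock; the first replicate is given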
Target sequence (P08753 whole entry, looked up): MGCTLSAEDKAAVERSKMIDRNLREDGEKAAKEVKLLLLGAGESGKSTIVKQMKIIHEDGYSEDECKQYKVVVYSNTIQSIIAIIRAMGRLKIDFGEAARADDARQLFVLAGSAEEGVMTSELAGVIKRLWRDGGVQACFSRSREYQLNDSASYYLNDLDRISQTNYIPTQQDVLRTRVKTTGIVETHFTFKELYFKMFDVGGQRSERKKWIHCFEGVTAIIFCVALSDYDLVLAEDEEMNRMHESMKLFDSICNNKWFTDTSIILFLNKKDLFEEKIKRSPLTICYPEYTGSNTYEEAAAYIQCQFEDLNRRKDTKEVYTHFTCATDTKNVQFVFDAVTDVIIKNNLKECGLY
Sa growth inh: blocks Staphylococcus aureus growth. S. aureus RN4220 growth, OD600, 20 h, 42 °C; stronger effect = lower value. relative growth, % (test concentration not listed). 0.53% of 170,000 active;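 active means growth at 42 °C up to 50% and 20 or more points under that at 30 °C, or under 10% at both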;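 further: 300 nL library stock went into each well; scaled to the means of positive and negative controls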
Sa growth inh second temp: second read-out of Sa growth inh, no call of its own (marks repeat the call); relative growth, %; measured here: growth at 30 °C;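 optical density after 20 h as mean of two plates; 100% = untreated growth and lower means inhibition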
* = called active by the depositor; · = no result given; & = joins results of further samples.

SMILES	HCMV NEC inh	GIV Gai3 FP	Sa growth inh	Sa growth inh second temp
Cc1occc1-c1nnc(SCC(=O)N(CC(C)C)c2c(N)n(CC(C)C)c(=O)[nH]c2=O)n1C	-14	·	98	86
O=C(NCCN1CCN(c2ccccc2)CC1)Nc1ccccc1Br	-15	100	102	82
CSc1nc2sc3c(c2c(=O)n1CCc1ccccc1)CC(C)(C)OC3	-10	99	·	·
O=C(CC1CCCC1)N1CCC2(CC1)Nc1ccc(Cl)cc1-n1cccc12	-30	102	·	·
CNS(=O)(=O)c1cn(CC(=O)NCCc2ccc(Cl)cc2)cc1S(=O)(=O)NC	-8	104	·	·
CCOC(=O)C(C)n1cnc2c(nnn2Cc2ccc(C)cc2)c1=O (stereo unspecified)	·	106	104	78
Cc1ccc(Cn2c(C(=O)NCc3ccccc3)cc3oc(C)cc32)cc1	-20	106	100	95
CC(C)=CCCC(C)CN1CCN(Cc2ccccc2)CC1 (stereo unspecified)	-5	103	97	101
CNC(=O)COc1ccc(NC(=O)CCn2nc(-c3ccc(Cl)cc3)c3ccccc3c2=O)cc1	·	101	111	83
CCCOc1ccc(/C=C/C(=O)O)cc1OCC	-36	·	103	78

Among those listed so far, these have a halogen.
SMILES	HCMV NEC inh	GIV Gai3 FP	Sa growth inh	Sa growth inh second temp
O=C(NCCN1CCN(c2ccccc2)CC1)Nc1ccccc1Br	-15	100	102	82
O=C(CC1CCCC1)N1CCC2(CC1)Nc1ccc(Cl)cc1-n1cccc12	-30	102	·	·
CNS(=O)(=O)c1cn(CC(=O)NCCc2ccc(Cl)cc2)cc1S(=O)(=O)NC	-8	104	·	·
CNC(=O)COc1ccc(NC(=O)CCn2nc(-c3ccc(Cl)cc3)c3ccccc3c2=O)cc1	·	101	111	83

The main list resumes, repeating the two entries before the break.
SMILES	HCMV NEC inh	GIV Gai3 FP	Sa growth inh	Sa growth inh second temp
CNC(=O)COc1ccc(NC(=O)CCn2nc(-c3ccc(Cl)cc3)c3ccccc3c2=O)cc1	·	101	111	83
CCCOc1ccc(/C=C/C(=O)O)cc1OCC	-36	·	103	78
Cc1ccc(-c2nn(-c3ccccc3)cc2/C=C2/CN(C)C/C(=C/c3cn(-c4ccccc4)nc3-c3ccc(C)o3)C2=O)o1	-1	·	97	92
CCn1c(SCC(=O)N2CCNC2=O)nnc1-c1cccs1	-7	·	86	94
Cc1ccc(S(=O)(=O)NCCc2sc(-c3ccc(Cl)cc3)nc2C)cc1	-22	101	·	·
CCn1cc(C(=O)NCc2ccc(C)cc2)c(=O)c2cc(S(=O)(=O)N(C)C)ccc21	-20	103	101	87
CN1CC=C(Cc2n[nH]c(=O)c3ccccc23)CC1	1	104	97	97
Cn1c(=O)[nH]c(=O)c2[nH]c(SCC(=O)O)nc21	-24	·	99	82
COC(=O)c1c(NC(=O)c2c(-c3ccccc3Cl)noc2C)sc2c1CCCC2	·	107	111	97
O=C(OCC(=O)N1CCCC1=O)c1ccc(S(=O)(=O)NCc2ccco2)cc1	-5	·	88	94
COc1ccc(OC)c(CNC(=O)c2cc(-c3ccc(Cl)s3)nc3ccccc23)c1	-2	107	94	91
CC(C)n1cc(-c2nc(C(=O)NN)cs2)c(=O)n(Cc2ccccc2)c1=O	-43	108	86	87
Cc1cc(C)c2c(-n3cccc3)c(C(=O)N3CCN(c4ccccc4)CC3)sc2n1	0	98	·	·
O=C(Cn1c(=O)oc2cc(S(=O)(=O)NCc3ccccc3)ccc21)NCc1ccccc1Cl	·	104	120	81
CCOc1cc(-n2cnnn2)c(OCC)cc1NC(=O)CN1Cc2ccccc2C1=O	-19	98	95	84
COc1cccc(NC(=O)Cc2ccc(NC(=O)N3CCCCc4ccccc43)cc2)c1	-15	104&100	112	88
COC(=O)c1ccc(OC(=O)c2cc(OC)c(OC)c(OC)c2)c(C(=O)OC)c1	2	·	89	93
NC(=O)C1CCN(c2nc(-c3cccc(Cl)c3)c3c(n2)-c2ccccc2OC3)CC1	·	98	91	76
Cc1ccc(OCCCC(=O)Nc2sc3c(c2C(N)=O)CCC(C)C3)cc1 (stereo unspecified)	34	105	96	100
CC1(C(=O)NC2CCCC2)CN(S(C)(=O)=O)CC(=O)N1c1ccc(F)cc1 (stereo unspecified)	4	110	·	·
CCN(Cc1ccccc1)CN1C(=O)C2(OCCCO2)c2ccccc21	-5	108	99	103
COc1ccc2scc(N3CCc4ccccc4C3)c(=O)c2c1	-8	115	·	·

Of the compounds above, these have an NH in an aromatic ring:
SMILES	HCMV NEC inh	GIV Gai3 FP	Sa growth inh	Sa growth inh second temp
Cc1occc1-c1nnc(SCC(=O)N(CC(C)C)c2c(N)n(CC(C)C)c(=O)[nH]c2=O)n1C	-14	·	98	86
CN1CC=C(Cc2n[nH]c(=O)c3ccccc23)CC1	1	104	97	97
Cn1c(=O)[nH]c(=O)c2[nH]c(SCC(=O)O)nc21	-24	·	99	82

Part of the list above, reduced to GIV Gai3 FP and HCMV NEC inh:
molecule | GIV Gai3 FP | HCMV NEC inh
CCN(Cc1ccccc1)CN1C(=O)C2(OCCCO2)c2ccccc21 | 108 | -5
Cc1ccc(OCCCC(=O)Nc2sc3c(c2C(N)=O)CCC(C)C3)cc1 (stereo unspecified) | 105 | 34
CC1(C(=O)NC2CCCC2)CN(S(C)(=O)=O)CC(=O)N1c1ccc(F)cc1 (stereo unspecified) | 110 | 4
CCOc1cc(-n2cnnn2)c(OCC)cc1NC(=O)CN1Cc2ccccc2C1=O | 98 | -19
NC(=O)C1CCN(c2nc(-c3cccc(Cl)c3)c3c(n2)-c2ccccc2OC3)CC1 | 98 | ·
O=C(Cn1c(=O)oc2cc(S(=O)(=O)NCc3ccccc3)ccc21)NCc1ccccc1Cl | 104 | ·
COc1cccc(NC(=O)Cc2ccc(NC(=O)N3CCCCc4ccccc43)cc2)c1 | 104&100 | -15

Next records
SMILES	HCMV NEC inh	GIV Gai3 FP	Sa growth inh	Sa growth inh second temp
Cn1nc(C(=O)NC2CCCCC2)c2ccccc2c1=O	·	107	100	86
CCc1nc2nc(C)cc(=O)n2[nH]1	·	107	101	91
CC1(C)CC(=O)c2cc(C(=O)Nc3ccc(Cl)cc3)c(=O)[nH]c2C1	-14&-4	102&107	94	88
Oc1ccc(CN2CCc3ccccc3C2)c2cccnc12	-52	·	46	0
COc1ccc(CCNC(=O)c2ccc3c(c2)N=C(C)c2cc(C)ccc2S3)cc1OC	-12	107	116	82
CCN(Cc1ccccc1)c1nc2c(S(=O)(=O)c3ccccc3)nnn2c2ccc(Cl)cc12	-4	100	103	91
Cc1ccc(C(=O)C(C)OC(=O)C2=COCCO2)cc1C (stereo unspecified)	-12	·	100	94
O=C(CCCSc1nc2ccccc2s1)NCc1ccco1	-8	·	100	94
OC(c1ccccc1)c1nnc(SCc2ccc(Br)cc2)n1-c1ccccc1 (stereo unspecified)	12	·	84	76
O=C(CNC(=S)N(Cc1ccccc1)Cc1cccs1)NC1CCCCC1	·	98	71	78
NC(CSC1CCCCO1)C(=O)O (stereo unspecified)	-18	103	105	93
Cc1ccnc(SCc2cc(=O)c(OC(=O)c3ccc4c(c3)OCO4)co2)n1	-33	105	85	79
COc1cc(/C=N/N)cc(OC)c1OC	8	102	89	86
Cc1ccc2oc(=O)c(C(=O)CC3CCCC3)c(O)c2c1	-9	102	24	15
CC(Sc1nnc(-c2ccccc2Br)o1)C(=O)NC1CC1 (stereo unspecified)	8	·	92	96
COc1ccc(OCCNC(=O)c2ccc3nccnc3c2)cc1	-74	100	77	74
CS(=O)(=O)c1ccccc1C(=O)Nc1nnc(-c2ccc(Cl)cc2)o1	-29	98	22	17
Cc1ccc2nc(COC(=O)CN3C(=O)C4CC=CCC4C3=O)cc(=O)n2c1 (stereo unspecified)	-61	·	90	97
O=C(NC1CCCCC1)N1CCc2cc(S(=O)(=O)N3CCc4ccccc4C3)ccc21	-12	97	·	·
Cn1c(-c2ccco2)n[nH]c1=S	-6	·	80	97
O=C(O)c1ccccc1-c1ccccc1C(=O)NCCCO	-8	101	90	106
Cc1ccc(NC(=O)CSc2nnc(CCN3CCOCC3)o2)cc1	-10	99	·	·
CC(C)(C)c1cc(C(=O)Nc2nccs2)ccn1	4	101	130	85
C=C(C)Cn1c(C2CCCN2C(=O)CC)nc2ccccc21 (stereo unspecified)	-22	103	·	·
Cc1nnc(N2CCC(C(=O)NC(C)C)CC2)c2nn(-c3ccc(Cl)cc3)c(C)c12	·	101	96	91
O=C(NC(=S)Nc1ccc(Br)cc1)C1CC1	-10	·	76	86
CC1=C(C(=O)Nc2ccccc2)C(c2ccc(Br)cc2)n2nc(CCCO)nc2N1 (stereo unspecified)	-8	108	105	88
Cc1ccc(CCNC(=O)c2ccc3c(c2)N(Cc2ccccc2F)C(=O)c2ccccc2S3=O)cc1 (stereo unspecified)	-25	101	99	84
O=C(Nc1ccc2nc(SCCOc3ccccc3)sc2c1)c1ccccc1F	-13&-7	99&101	103	88
c1ccc(CN2CCC(NC3CCCC3)CC2)cc1	-7	109	111	102
Nc1nn2cc(-c3ccccc3)nc2c2ccccc12	-21	·	97	51
Cc1cccc(Cn2cc(C(=O)Nc3cc(F)ccc3F)ccc2=O)c1	·	105&107	115	89
Cc1ccc(C)c(NC(=O)N2CCCC2c2ccc(Cl)cc2)c1 (stereo unspecified)	-18	99	·	·
O=C(NC1CCCc2ccccc21)C1CCN(c2ccnc(-c3cccc(F)c3)n2)CC1 (stereo unspecified)	-20	101	·	·
CCOc1ccc(N2C(=O)CC(/C=C3/N(C)c4ccccc4C3(C)C)C2=O)cc1 (stereo unspecified)	5	130	112	81
CC(Oc1ccc(-c2ccccc2)c(F)c1)c1ccnc(N)n1 (stereo unspecified)	-14	96	·	·
O=C(NC1CCCC1)c1ccccc1	·	97	93	80
Cc1cccc(N2CCN(CCNC(=O)c3csc4c3CCCC4)CC2)c1C	·	102	104	86
CC1CCCCN1CCCNC(=O)c1c(O)nc2ccccn2c1=O (stereo unspecified)	8	102	87	91
O=C(CSc1nc2ccccc2[nH]1)N1CCCC1	-14	99	112	82
CCOC(=O)C1CCCCN1Cc1ccc(CC)cc1 (stereo unspecified)	19	100	109	112
CCOc1ccccc1C(=O)N1CCC(c2nc3ccccc3o2)CC1	-23	98	104	84
COc1cccc(NC(=O)N2CCN(C)c3ncccc32)c1	18	104	·	·
O=C1Nc2cc(C(=O)N3CCN(c4ccc(F)cc4)CC3)ccc2NC1CS(=O)(=O)Cc1ccc(F)cc1 (stereo unspecified)	-35	185	117	95
Cc1ccc(C)c(N2CCN(S(=O)(=O)c3cc(C(=O)Nc4ccccc4C(F)(F)F)ccc3F)CC2)c1	·	99	97	90
Cc1ccc(C)c(NC(=O)CSc2cn(CC(=O)N3CCCC3)c3ccccc23)c1	·	102	94	91
N=c1n(CCOc2ccccc2)c2ccccc2n1Cc1ccccc1	·	102	80	29
Cc1cc(C)c(NC(=O)c2ccc(S(=O)(=O)c3ccc(C)c(C)c3)nc2)c(C)c1	-27	105	·	·
O=S(=O)(c1cccc(F)c1)N1CCC(c2nc3ccccc3s2)CC1	-10	101	105	91
CC(=O)OC[C@H]1O[C@@H](NC(N)=O)[C@H](OC(C)=O)[C@@H](OC(C)=O)[C@@H]1OC(C)=O	0	102	86	91

New compounds follow:
SMILES	HCMV NEC inh	GIV Gai3 FP	Sa growth inh	Sa growth inh second temp
O=C(O)CCC(=O)N(c1ccccc1)c1ccccc1	-7	100	103	103
Cc1ccc(C(=O)N(c2ccc(SC(F)F)cc2)c2nc3ccccc3s2)o1	16	·	107	112
CCC1(C)N=C(c2ccc3c(c2)OCO3)CC(c2ccccc2O)N1 (stereo unspecified)	-32	105	90	88
COc1ccc(C(=O)N2c3cc(CNC(=O)c4cc(CC(C)C)on4)ccc3CC2C)cc1 (stereo unspecified)	-32	102	·	·
O=C(CSc1ncn[nH]1)C1CC1	-6	·	97	84

Hits appear at their usual frequency (roughly 0.85% active in at least one column).
